CBX7 inh – CBX7 chromodomain binding inhibitors, primary screen, biochemical, AlphaScreen | AlphaScreen His6-CBX7 / biotin-H3K27me3 peptide binding; hits give low values | 1.1% of 66,000 active | Chromobox protein homolog 7 (Homo sapiens), O95931 | normalised signal (fraction of DMSO) (concentration not given with the values); in the data active = normalised signal below about 0.5;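 also: 100 nL library stock added to about 20 µL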
Target sequence (O95931 whole entry, looked up): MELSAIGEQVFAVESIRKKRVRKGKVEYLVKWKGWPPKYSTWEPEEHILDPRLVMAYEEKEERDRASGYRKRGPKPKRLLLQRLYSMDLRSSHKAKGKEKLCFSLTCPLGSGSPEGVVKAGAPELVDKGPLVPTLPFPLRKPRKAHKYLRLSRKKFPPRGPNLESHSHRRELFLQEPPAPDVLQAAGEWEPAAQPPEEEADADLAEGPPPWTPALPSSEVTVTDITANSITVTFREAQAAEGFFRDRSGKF
CBX7 inh z-score – further read-out of CBX7 inh, marked with its call; z-score; measured here: z-score of CBX7 signal; some inactives read as strong as hits; reference of the scale not given here;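 same signal on another scale; lower means less binding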
Numbers without * were called inactive; & = joins results of further samples.

The opening 14 records, to show the layout:
How did Cc1nc2ccc(S(=O)(=O)N(C)CC(=O)N3CCc4ccccc43)cc2s1 do in these assays?
CBX7 inh: 1.1; CBX7 inh z-score: 0.47

How did C=CCN1C(=O)c2ccccc2Sc2ccc(C(=O)NC3CCCCCCC3)cc21 do in these assays?
CBX7 inh: 1.1; CBX7 inh z-score: 1.6

How did Cc1cc(Br)ccc1NC(=O)CCc1nc(-c2cccs2)no1 do in these assays?
CBX7 inh: 0.99; CBX7 inh z-score: -0.25

Results for CCOc1ccc(C(C)(O)C(CN2CCCCC2)c2ccccc2)cc1 (centres undefined) ?
CBX7 inh: 0.67; CBX7 inh z-score: -7.1

How did CNC(=O)c1c[nH]c2ccc(S(=O)(=O)Nc3ccc(C(C)C)cc3)cc2c1=O do in these assays?
CBX7 inh: 0.91; CBX7 inh z-score: -1.7

How did O=C1CN(C(=O)c2ccc(F)cc2)C(c2ccc(F)cc2)c2cc(F)ccc2N1 (centres undefined) do in these assays?
CBX7 inh: 0.96; CBX7 inh z-score: -0.19

What do the screens show for `COc1ccccc1Nc1nc2ccccc2nc1-n1nc(C)cc1C`?
CBX7 inh: 2.7; CBX7 inh z-score: 34

How did Cc1ccc(-c2nc(Nc3ccc(Cl)cc3)c3ccccc3n2)cc1 do in these assays?
CBX7 inh: 1.1; CBX7 inh z-score: 1.6

How did COc1cc(OC)c2c(C(=O)O)cc(-c3ccc(O)c(OC)c3)nc2c1 do in these assays?
CBX7 inh: 1.1; CBX7 inh z-score: 1.7

How did Cc1nnc(Sc2cc(C(=O)NCCCN3CCOCC3)c3ccccc3n2)s1 do in these assays?
CBX7 inh: 1; CBX7 inh z-score: 0.58

How did CC(C)c1ccc(C(=O)CC2(O)C(=O)N(Cc3ccccc3)c3ccccc32)cc1 (centres undefined) do in these assays?
CBX7 inh: 0.97; CBX7 inh z-score: -0.074

What do the screens show for `Cc1cc2c(=O)n(CC(=O)Nc3ccc(F)c(Cl)c3)cnc2s1`?
CBX7 inh: 0.99; CBX7 inh z-score: -0.18

How did O=C1CC(N2CCN(c3ccccn3)CC2)C(=O)N1c1cccc(Br)c1 (centres undefined) do in these assays?
CBX7 inh: 1; CBX7 inh z-score: 0.14

Results for CCCCNC(=O)CNC(=O)Cn1cnc2sc(C)c(C)c2c1=O ?
CBX7 inh: 1.1; CBX7 inh z-score: 0.97

Main list (from the top)
How did Cc1nc2ccc(S(=O)(=O)N(C)CC(=O)N3CCc4ccccc43)cc2s1 do in these assays?
CBX7 inh: 1.1; CBX7 inh z-score: 0.47

How did C=CCN1C(=O)c2ccccc2Sc2ccc(C(=O)NC3CCCCCCC3)cc21 do in these assays?
CBX7 inh: 1.1; CBX7 inh z-score: 1.6

How did Cc1cc(Br)ccc1NC(=O)CCc1nc(-c2cccs2)no1 do in these assays?
CBX7 inh: 0.99; CBX7 inh z-score: -0.25

Results for CCOc1ccc(C(C)(O)C(CN2CCCCC2)c2ccccc2)cc1 (centres undefined) ?
CBX7 inh: 0.67; CBX7 inh z-score: -7.1

How did CNC(=O)c1c[nH]c2ccc(S(=O)(=O)Nc3ccc(C(C)C)cc3)cc2c1=O do in these assays?
CBX7 inh: 0.91; CBX7 inh z-score: -1.7

How did O=C1CN(C(=O)c2ccc(F)cc2)C(c2ccc(F)cc2)c2cc(F)ccc2N1 (centres undefined) do in these assays?
CBX7 inh: 0.96; CBX7 inh z-score: -0.19

What do the screens show for `COc1ccccc1Nc1nc2ccccc2nc1-n1nc(C)cc1C`?
CBX7 inh: 2.7; CBX7 inh z-score: 34

How did Cc1ccc(-c2nc(Nc3ccc(Cl)cc3)c3ccccc3n2)cc1 do in these assays?
CBX7 inh: 1.1; CBX7 inh z-score: 1.6

How did COc1cc(OC)c2c(C(=O)O)cc(-c3ccc(O)c(OC)c3)nc2c1 do in these assays?
CBX7 inh: 1.1; CBX7 inh z-score: 1.7

How did Cc1nnc(Sc2cc(C(=O)NCCCN3CCOCC3)c3ccccc3n2)s1 do in these assays?
CBX7 inh: 1; CBX7 inh z-score: 0.58

How did CC(C)c1ccc(C(=O)CC2(O)C(=O)N(Cc3ccccc3)c3ccccc32)cc1 (centres undefined) do in these assays?
CBX7 inh: 0.97; CBX7 inh z-score: -0.074

What do the screens show for `Cc1cc2c(=O)n(CC(=O)Nc3ccc(F)c(Cl)c3)cnc2s1`?
CBX7 inh: 0.99; CBX7 inh z-score: -0.18

How did O=C1CC(N2CCN(c3ccccn3)CC2)C(=O)N1c1cccc(Br)c1 (centres undefined) do in these assays?
CBX7 inh: 1; CBX7 inh z-score: 0.14

Results for CCCCNC(=O)CNC(=O)Cn1cnc2sc(C)c(C)c2c1=O ?
CBX7 inh: 1.1; CBX7 inh z-score: 0.97

What do the screens show for `CC(C)CCNC(=O)c1cc(=O)[nH]c2ccc(S(=O)(=O)N3CCCCC3C)cc12` (centres undefined)?
CBX7 inh: 1.1; CBX7 inh z-score: 3.4

What do the screens show for `COC(CNC(=O)c1cc(Nc2ccc(C)c(C)c2)nc2ccccc12)OC`?
CBX7 inh: 0.98; CBX7 inh z-score: -0.31

What do the screens show for `CC(C)N(Cc1nc(-c2ccccc2)no1)C(=O)c1ccc(Cl)cc1`?
CBX7 inh: 1; CBX7 inh z-score: -0.097

How did Cn1c(=O)c(=O)n(C)c2cc(S(=O)(=O)Nc3ccccc3F)ccc21 do in these assays?
CBX7 inh: 0.82; CBX7 inh z-score: -2.7

Results for O=C(O)c1c2c(nc3ccc(S(=O)(=O)N4CCC(C(=O)N5CCCCCC5)CC4)cc13)CCCC2 ?
CBX7 inh: 1; CBX7 inh z-score: 0.54

Results for COc1ccc(/C=c2\sc3nc4c(C)cccc4n3c2=O)cc1O ?
CBX7 inh: 1; CBX7 inh z-score: 1.2

What do the screens show for `COc1ccc(C2=NOC(C(=O)Nc3cc(C)on3)C2)cc1` (centres undefined)?
CBX7 inh: 1; CBX7 inh z-score: 1.1

How did CCC1=Nc2cc(C(=O)NCCCOC(C)C)ccc2Sc2ccc(C)cc21 do in these assays?
CBX7 inh: 0.92; CBX7 inh z-score: -0.86

How did CCCN1CCN(CCCNC(=O)c2ccc3nc(N4CCC(C)CC4)sc3c2)CC1 do in these assays?
CBX7 inh: 1.5; CBX7 inh z-score: 4.4

Results for COCCN(CCOC)S(=O)(=O)c1ccc(C(=O)Nc2nc3c(OC)cccc3s2)cc1 ?
CBX7 inh: 1.1; CBX7 inh z-score: 1.4

What do the screens show for `Cn1c(SCC(=O)Nc2ccc(C(F)(F)F)cc2)nnc1-c1c[nH]c2ccccc12`?
CBX7 inh: 1.1; CBX7 inh z-score: 0.99

Results for CCC(=O)Nc1cccc(-c2nc3ccccc3o2)c1 ?
CBX7 inh: 1.1; CBX7 inh z-score: 2.3

What do the screens show for `COc1cccc(NC(=O)Cn2ncc3c2-c2cc(C)ccc2OC3)c1`?
CBX7 inh: 0.93; CBX7 inh z-score: -1.7

What do the screens show for `Cc1ccc(C(=O)c2oc3ccccc3c2NC(=O)C2COc3ccccc3O2)cc1` (centres undefined)?
CBX7 inh: 1.1; CBX7 inh z-score: 0.88

Results for COc1cc(OC)cc(-c2nc(-c3ccccc3)c(-c3ccc(Cl)cc3)[nH]2)c1 ?
CBX7 inh: 0.56&1; CBX7 inh z-score: -7&1.9

What do the screens show for `Cc1cc(NC(=O)CSc2nccn2-c2ccc(F)cc2)no1`?
CBX7 inh: 0.91; CBX7 inh z-score: -0.12

What do the screens show for `O=C(CSc1nnc(-c2ccncc2)n1-c1ccccc1)Nc1ccc(F)cc1`?
CBX7 inh: 1; CBX7 inh z-score: 0.072

How did C=CCSc1nc(N2CCOCC2)c2c(c1C#N)CC(C)(C)OC2 do in these assays?
CBX7 inh: 1.1; CBX7 inh z-score: 2.1

What do the screens show for `Clc1ccccc1-c1nc(Nc2ccccc2)nc2ccc(Br)cc12`?
CBX7 inh: 1.4; CBX7 inh z-score: 6.7

How did CCCCNC(=O)c1ccc2c(=O)n3c(nc2c1)CCCCC3 do in these assays?
CBX7 inh: 1.1; CBX7 inh z-score: 0.11

How did O=C(C1CCCN(S(=O)(=O)c2cccnc2)C1)N1CCc2ccccc2C1 (centres undefined) do in these assays?
CBX7 inh: 0.98; CBX7 inh z-score: -0.76

What do the screens show for `CCOc1ccc(CCNC(=O)CCCN2C(=O)CSc3ncccc32)cc1OCC`?
CBX7 inh: 1; CBX7 inh z-score: 0.26

Results for c1ccc(-c2nc3cnccn3c2NC2CCCCC2)cc1 ?
CBX7 inh: 1.3; CBX7 inh z-score: 2.7

What do the screens show for `COc1ccc(NC2=NCCCCC2)cc1`?
CBX7 inh: 1; CBX7 inh z-score: 0.35

How did O=C1Nc2ccc(Cl)cc2C(c2ccccc2)=Nc2ccccc21 do in these assays?
CBX7 inh: 0.72; CBX7 inh z-score: -0.49

Results for COc1ccc(N(CC(=O)Nc2cc(OC)ccc2OC)S(=O)(=O)c2c(C)nn(C)c2C)cc1 ?
CBX7 inh: 0.89; CBX7 inh z-score: -0.77

Results for Cc1[nH]c2ccc(OC(F)(F)F)cc2c1CCNC(=O)c1ccnn1C ?
CBX7 inh: 0.9; CBX7 inh z-score: -1.4

What do the screens show for `Cc1nc2c(C(=O)N3CCCC3)cnn2c(C)c1Cc1ccccc1F`?
CBX7 inh: 1; CBX7 inh z-score: 0.82

How did O=C1NC(c2ccccc2F)c2c(-c3ccccc3)n[nH]c21 (centres undefined) do in these assays?
CBX7 inh: 0.93; CBX7 inh z-score: -0.95

How did CCOc1ccccc1NC(=O)CCc1c(C)nc2cc(-c3ccc(Cl)cc3)nn2c1C do in these assays?
CBX7 inh: 0.98; CBX7 inh z-score: -0.47

What do the screens show for `COc1ccc(-n2nnc3c(=O)n(CC(=O)Nc4ccccc4F)cnc32)cc1`?
CBX7 inh: 1.1; CBX7 inh z-score: 1.2

Results for COc1ccccc1N1CCN(CC(O)COc2ccccc2C(C)(C)C)CC1 (centres undefined) ?
CBX7 inh: 0.87; CBX7 inh z-score: -3.1

What do the screens show for `CCOC(=O)c1ccc2nc(C)cc(Nc3cccc(C(F)(F)F)c3)c2c1`?
CBX7 inh: 1.1; CBX7 inh z-score: 0.075

How did COc1cccc(-c2nn(C)c3sc(C(=O)NCCC(C)C)cc23)c1 do in these assays?
CBX7 inh: 1.1; CBX7 inh z-score: 3.8

What do the screens show for `CCCSc1oc(-c2cccs2)nc1S(=O)(=O)c1ccc(C)cc1`?
CBX7 inh: 1.1; CBX7 inh z-score: 2.5

Results for CCOCCCNC(=O)Cn1ncc2c1-c1cc(C)ccc1OC2 ?
CBX7 inh: 0.96; CBX7 inh z-score: -1.1

Results for CC(C)NC(=O)CCCN1C(=O)CSc2ncccc21 ?
CBX7 inh: 1.1; CBX7 inh z-score: 1.7

How did CC1=Nc2cc(C(=O)NCC3CCCO3)ccc2Sc2ccc(Br)cc21 (centres undefined) do in these assays?
CBX7 inh: 0.98; CBX7 inh z-score: -1

How did Oc1ccc(-c2nc(-c3ccccc3)c(-c3ccc(Oc4ccccc4)cc3)[nH]2)cc1O do in these assays?
CBX7 inh: 0.45*; CBX7 inh z-score: -2.2*

What do the screens show for `CN1CCN(C(=O)C2CCN(C(=O)c3cnn(-c4ccccc4)c3-n3cccc3)CC2)CC1`?
CBX7 inh: 1; CBX7 inh z-score: 0.4

Results for O=C(NCCN1CCC(Cc2ccccc2)CC1)C1CC(=O)N(CCc2ccccc2)C1 (centres undefined) ?
CBX7 inh: 1.1; CBX7 inh z-score: 3

What do the screens show for `O=C(O)CNC(=O)NC12CC3CC(CC(C3)C1)C2`?
CBX7 inh: 0.98; CBX7 inh z-score: -0.56

What do the screens show for `COc1ccc(C2C(Oc3ccccc3C)C(=O)N2c2cc(C)ccc2C)cc1OC` (centres undefined)?
CBX7 inh: 0.85; CBX7 inh z-score: -1.7

What do the screens show for `Cc1ccc(-c2nnc(Nc3cccc(Cl)c3)c3ccccc23)cc1S(=O)(=O)N1CCCCC1`?
CBX7 inh: 0.82; CBX7 inh z-score: -3.4

How did Cc1ccc(-c2nc3ncccc3o2)cc1NC(=O)c1cccnc1Cl do in these assays?
CBX7 inh: 0.98; CBX7 inh z-score: -0.77

What do the screens show for `COc1ccc(N2C(=O)C(N3C(=O)c4ccccc4C3=O)C2c2cccc(OC)c2)cc1` (centres undefined)?
CBX7 inh: 0.9; CBX7 inh z-score: -3.7

Overlap with the part before: two compounds, then new ones.
How did Cc1ccc(-c2nc3ncccc3o2)cc1NC(=O)c1cccnc1Cl do in these assays?
CBX7 inh: 0.98; CBX7 inh z-score: -0.77

What do the screens show for `COc1ccc(N2C(=O)C(N3C(=O)c4ccccc4C3=O)C2c2cccc(OC)c2)cc1` (centres undefined)?
CBX7 inh: 0.9; CBX7 inh z-score: -3.7

Results for CCCCCC1C(=O)CC(c2ccccc2)N(C)C1c1ccccc1 (centres undefined) ?
CBX7 inh: 1.4; CBX7 inh z-score: 3

Results for Cc1cc(=O)n2nc(N3CCCC(C(=O)NC4CCC(C)CC4)C3)sc2n1 (centres undefined) ?
CBX7 inh: 1; CBX7 inh z-score: 0.34

What do the screens show for `COc1ccc(-n2c(C)nc3cc(C(=O)N4CCOCC4)ccc32)cc1`?
CBX7 inh: 1; CBX7 inh z-score: 0.055

What do the screens show for `COc1ccccc1Nc1nc(-c2c(C)nc3cc(C)ccn23)cs1`?
CBX7 inh: 0.76; CBX7 inh z-score: -0.28

How did CCN1CCN(CCCNC(=O)CCNC(=O)Cn2ccc3ccccc3c2=O)CC1 do in these assays?
CBX7 inh: 1; CBX7 inh z-score: 0.22

How did Cn1ccnc1SCC(=O)Nc1ccc(F)cc1F do in these assays?
CBX7 inh: 1; CBX7 inh z-score: 0.048

What do the screens show for `CCC1Oc2ccc(C)cc2N(CC(=O)NCc2ccc(F)cc2)C1=O` (centres undefined)?
CBX7 inh: 0.98; CBX7 inh z-score: -0.31

What do the screens show for `FC(F)(F)c1nc(Nc2cc(Cl)ccc2Cl)sc1-c1ccc(Cl)cc1`?
CBX7 inh: 1.1; CBX7 inh z-score: 3.3

Results for CC(=O)Nc1ccc(NC(=O)CC2Oc3ccccc3NC2=O)cc1 (centres undefined) ?
CBX7 inh: 1.1; CBX7 inh z-score: 0.74

What do the screens show for `O=C(NCc1cccs1)c1cnn(-c2ccccc2)c1-n1cccc1`?
CBX7 inh: 1.1; CBX7 inh z-score: 3.4

Source: PubChem BioAssay

This is a subset, so the mix of outcomes need not match the whole.
